Menin MLL FP FL = menin-MLL binding inhibition, fluorescein peptide; Fluorescence polarization, fluorescein-MLL peptide displacement from menin; AID 1766; 290,000 tested, under 10 active; FP activity change, % at 61.4 µM; inconclusive = falling polarisation curve, or a change in total fluorescence; inactive = total fluorescence flat and polarisation flat or rising; no compound was filed as active; the % refers to the polarisation; negative = inhibition;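 note: % of control where 0% means no effect; inhibitors lower the polarisation; unlabelled MLL peptide was the positive control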
TRPML1 blocker = inhibitors of human TRPML1 channel. Q9GZU1. TRPML1-inducible cells, Ca2+ dye fluorescence, FDSS; hits give low values; inhibition of EC80 agonist-evoked calcium signal. activity change, negative = inhibition, % (no concentration beside the values). 390,000 tested, 0.02% active; in the data active means activity change below about -50%; inconclusive means about -30% to -50%; inactive means above about -30%;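 note: stimulus is agonist 54-4 at its EC80 concentration; % is set by controls: 0 for no effect and ±100 for the full control effect; compound concentration not given in the record; the text of the record puts the active cut at -80%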
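Tet-induced TRPML1-DL cells loaded with Ca8 no-wash calcium dye were read kinetically on FDSS. Compound addition was followed by EC80 agonist 54-4 (4 uM final); inhibition was read over 110 s.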
gsp antag = gsp mutant antagonism. Potency, µM (top dose mostly 76.9 µM), for the others: top-dose activity change, negative = inhibition, actives largely listed as inhibitors. AID 624288. 340,000 tested, 0.4% active. gsp-mutant cells, cAMP HTRF, 30 min; control for the full effect not named in the record; active = falling curve of any shape with a large fitted effect; inconclusive = falling curve, mostly with a smaller effect; inactive = flat or rising curve; cell line not stated here;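 note: intracellular cAMP measured with PDE inhibitor Ro 20-1724 present during compound exposure; potency is the fitted concentration of half-maximal effect; % is set by controls: 0 for no effect and ±100 for the full control effect; nearly all actives have a fitted effect of over 65% in size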
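Cells in G418 medium, seeded 16-24 h, 37C; buffer exchange to DPBS + 1 mM CaCl2, 0.5 mM MgCl2, 0.05% BSA; cpds in DMSO + […] (300 uM stock), 30 min 37C; HTRF cAMP detection.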
Sfp PPTase inh = inhibitors of Bacillus subtilis Sfp phosphopantetheinyl transferase; Biochemical Sfp PPTase activity, qHTS; Potency, µM, for the others: max response, negative = inhibition, most hits filed as inhibitors; 310,000 tested, 3.5% active; active = well fitted inhibition curve with a large enough effect; inconclusive = small, poorly fitted or top-dose-only effect, or another doubt; inactive = no such curve, though single readings can be large or run the other way;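 note: the enzyme is Sfp with the accession as filed and its product quenches rhodamine fluorescence; potency is the fitted concentration of half-maximal effect; 0% = enzyme reaction without inhibitor and -100% = no enzyme wells; top concentration of the series not given in the record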
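Compounds were incubated with enzyme (final 15 nM) for 15 min at room temperature before substrate addition started the reaction. Fluorescence at 525 nm excitation, 598 nm emission was recorded immediately and after 30 minutes.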
TRPV1 potentiator = potentiators of human vanilloid receptor 1 (TRPV1); 320,000 tested, 0.02% active; potentiation, % at 8.33 µM; TRPV1-expressing cells, Fluo-8 calcium influx, capsaicin EC20 potentiation; host cell line not named in the record; control for the full effect not named in the record; active means potentiation above 80%; inconclusive means 30% to 80%; inactive means below 30%; note: 0% is about no effect
Target sequence (Q8NER1 whole entry, looked up): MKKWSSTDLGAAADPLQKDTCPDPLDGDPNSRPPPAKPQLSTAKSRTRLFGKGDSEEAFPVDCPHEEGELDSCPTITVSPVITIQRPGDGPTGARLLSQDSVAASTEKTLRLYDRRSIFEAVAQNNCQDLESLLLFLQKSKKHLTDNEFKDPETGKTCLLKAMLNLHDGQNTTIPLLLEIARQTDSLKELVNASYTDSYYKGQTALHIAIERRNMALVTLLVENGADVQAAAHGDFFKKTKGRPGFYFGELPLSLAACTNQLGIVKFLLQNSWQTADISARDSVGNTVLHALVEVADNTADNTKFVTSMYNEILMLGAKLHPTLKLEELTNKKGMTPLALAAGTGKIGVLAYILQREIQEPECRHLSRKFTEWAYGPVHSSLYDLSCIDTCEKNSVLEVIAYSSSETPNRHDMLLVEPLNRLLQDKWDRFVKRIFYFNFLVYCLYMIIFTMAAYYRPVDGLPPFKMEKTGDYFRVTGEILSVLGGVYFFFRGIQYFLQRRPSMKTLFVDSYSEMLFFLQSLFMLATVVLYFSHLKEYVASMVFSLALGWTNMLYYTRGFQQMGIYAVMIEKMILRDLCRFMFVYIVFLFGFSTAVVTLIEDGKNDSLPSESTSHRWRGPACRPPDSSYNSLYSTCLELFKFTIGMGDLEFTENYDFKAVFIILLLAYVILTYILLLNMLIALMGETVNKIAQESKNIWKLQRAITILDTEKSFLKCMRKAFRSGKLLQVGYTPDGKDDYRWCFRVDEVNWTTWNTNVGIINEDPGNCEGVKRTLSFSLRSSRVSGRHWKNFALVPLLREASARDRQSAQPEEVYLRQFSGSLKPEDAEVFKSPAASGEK
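Fluo-8 calcium influx in TRPV1-expressing cells, kinetic read (ex 480/em 520 nm). Compound added and read 3 min for agonist activity, followed by capsaicin at EC20 final and 2 min further read for enhancement.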
gsp ag = activates gsp, the McCune-Albright syndrome mutation; 340,000 tested, 0.13% active; Potency, µM (titrated, usually from 76.9 µM), for inactives: at the highest dose activation (cAMP increase), hits mostly activators; gsp mutant cells, cAMP HTRF, 30 min; control for the full effect not named in the record; active = well fitted activation curve with a large enough effect; inconclusive = small, poorly fitted or top-dose-only effect, or another doubt; inactive = no such curve, though single readings can be large or run the other way; cell line not stated here;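 note: phosphodiesterase inhibitor Ro 20-1724 added with compounds to block cAMP breakdown; potency is the fitted concentration of half-maximal effect; nearly all actives have a fitted effect of over 60% in size; about a fifth of the inactives were tested at one dose only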
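Cells stably selected in G418 were plated at 2000/well, grown 16-24 hr, then given compounds in DMSO with the PDE inhibitor […] (300 uM solution added) for 30 min at 37C; cAMP was read by HTRF.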
ClpP mod = qHTS Assay for Activators of ClpP; ATP-dependent Clp protease proteolytic subunit (Bacillus subtilis (strain 168)), P80244; purified B. subtilis ClpP, FRET peptide cleavage, 20 min; Potency, µM (top dose mostly 57.5 µM), for inactives: at the highest dose activity change, negative = active; 340,000 tested, 1.9% active; AID 651965, 2013; active = well fitted falling curve with a large enough effect; inconclusive = small, poorly fitted or top-dose-only effect; inactive = no such curve, though single readings can be large or run the other way; note: potency is the fitted concentration of half-maximal effect; the source files actives as falling curves though it sought activators and does not explain the sign; nearly all actives have a fitted effect of over 65% in size; many hits overshoot -100%
Target sequence (P80244 whole entry, looked up): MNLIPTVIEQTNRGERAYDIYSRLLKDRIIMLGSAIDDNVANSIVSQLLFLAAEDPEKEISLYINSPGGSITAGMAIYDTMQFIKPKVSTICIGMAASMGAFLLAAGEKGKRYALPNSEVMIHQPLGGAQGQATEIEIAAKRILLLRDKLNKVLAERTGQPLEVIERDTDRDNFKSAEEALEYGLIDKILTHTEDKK
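FRET quenching reversal measured ClpP activation: 10 microg/mL B. subtilis ClpP at pH 8 with the FRET-FV decapeptide, read at 430 nm after 320 nm excitation. The 20-min minus 0-min signal was scaled between DMSO/no-enzyme wells and ADEP (5.8 microM final).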
The depositor's hits bear a star; ? = inconclusive; . = no result given; & = joins results of further samples; [ ] = dose if it differs, or a comment.

Field names: A = Menin MLL FP FL; B = TRPML1 blocker; C = gsp antag; D = Sfp PPTase inh; E = TRPV1 potentiator; F = gsp ag; G = ClpP mod
Cc1ccc(CNC(=O)CSc2nnnn2C)cc1
  A: -2.1 | B: -1 | C: -1% | D: 14% | E: 3 | F: -12% | G: 3.1%

Cc1cc(C(=O)CSc2nc(N)cc(=O)[nH]2)c(C)n1CCc1ccc(Cl)cc1
  A: -1.1 | B: 24 | C: -17% | D: 0% | E: 3 | F: 9% | G: 0.9%

O=C(CSc1nnc(C23CC4CC(CC(C4)C2)C3)o1)Nc1ccc(N2CCOCC2)c(Cl)c1
  A: 6.7 | B: -10 | C: 7% | D: 1% | E: -5 | F: 5% | G: -1.7%

COc1ccc(OC)c(C(c2nnnn2CCC(C)C)N2CCN(C(=O)c3ccco3)CC2)c1 (stereo not given)
  A: -1.5 | B: -4 | C: -19% | D: -3% | E: 24 | F: -12% | G: -1.9%

Cc1cccc(NC(=O)c2oc3ccc(S(=O)(=O)N4CCOCC4)cc3c2C)c1C
  A: 0.9 | B: 49 | C: -19% | D: 5% | E: 4 | F: -12% | G: 56%

Cc1ccc(CN2CCC(N3CC(C)OC(C)C3)CC2)cc1 (stereo not given)
  A: 22 | B: 17 | C: 9% | D: -24% | E: -11 | F: -34%[inhibitor] | G: -1.0%

Cc1ccccc1-n1cnc2cc(NCc3cccs3)ccc21
  A: 2.6 | B: 5 | C: 9% | D: -6% | E: -15 | F: 1% | G: ?

O=C(CS(=O)(=O)Cc1ccccc1)Nc1ccc(S(=O)(=O)N2CCCCCC2)cc1
  A: 5.4 | B: -9 | C: 11% | D: 3% | E: 0 | F: -3% | G: -0.3%

Cc1nonc1NC(=O)N1CCCC1
  A: 3.9 | B: -23 | C: -4% | D: 6% | E: 14 | F: -6% | G: -1.4%

COc1ccc(C(C(=O)NC2CCCCC2)N(C(=O)c2sc(C)nc2C)c2ccc(OC)cc2)cc1 (stereo not given)
  A: 3.2 | B: 10 | C: -2% | D: -17% | E: 17 | F: -5% | G: 0.6%

Cc1ccc(S(=O)(=O)Nc2ccc(NC(=O)Nc3ccc(F)cc3F)cc2)cc1
  A: 4.8 | B: -13 | C: -10% | D: 20% | E: 13 | F: ? | G: -9.2%

Cc1cc(Cl)ccc1C(=O)C1CCCN(C(=O)c2cccnc2C)C1 (stereo not given)
  A: -8.0 | B: 25 | C: -5% | D: 11% | E: -14 | F: 16% | G: -0.6%

COc1cccc(OC(=O)CSc2nnc(-c3ccccc3Br)o2)c1
  A: 0.2 | B: 27 | C: 5% | D: 0% | E: 4 | F: -58%[inhibitor] | G: 0.8%

CC(=O)Nc1ccc(N2CCN(c3ccc(F)cc3)CC2)cc1
  A: -0.5 | B: 6 | C: 4% | D: 12% | E: 6 | F: -11% | G: -0.9%

CC1C(=O)N2CCCc3cc(S(=O)(=O)N4CCC(C(N)=O)CC4)cc1c32 (stereo not given)
  A: -3.5 | B: -8&2 | C: 2% | D: ? | E: 3 | F: -1% | G: -5.4%&-4.5%

O=S(=O)(NCCN1CCOCC1)c1ccc2c(c1)OCCO2
  A: -0.6 | B: -14 | C: 11% | D: 8% | E: 8 | F: 1%[15.4 µM] | G: .

COC(C/C=C\[C@@H](O)[C@H](C)OCc1ccccc1)OC
  A: . | B: 49 | C: 13% | D: . | E: . | F: 7% | G: -0.5%

CC12CCC(C(=O)N(CCCCN3CCN(Cc4ccccc4)CC3)C1=O)C2(C)C (stereo not given)
  A: 0.9 | B: 47 | C: 5% | D: 11% | E: -1 | F: 28% | G: .

COc1ccc(Cl)cc1NC(=O)CN(C)C1CCS(=O)(=O)C1 (stereo not given)
  A: . | B: -7 | C: 3% | D: . | E: -21 | F: 30% | G: 1.1%

O=C(OC1CCOC1=O)c1ccc2ccccc2n1 (stereo not given)
  A: -0.2 | B: 6 | C: -7% | D: -6% | E: 25 | F: ? | G: -10.0%

O=S(=O)(c1ccc(Cl)cc1)N1CCN(C2CCCCCC2)CC1
  A: 1.3 | B: -6 | C: 3% | D: 0% | E: -21 | F: -38%[inhibitor] | G: 0.8%

COc1ccc(Cc2nc3ccccc3[nH]2)cc1OC
  A: 2.2 | B: 2 | C: . | D: -9% | E: 3 | F: 1%[15.4 µM] | G: .

COc1ccc(/C=N/n2c(-c3n[nH]c4c3CCC4)n[nH]c2=S)cc1OC
  A: -1.6 | B: 7 | C: -1% | D: -21% | E: -15 | F: -42%[inhibitor] | G: 2.6%

N#C/C(=C\c1ccccc1OCc1ccc(C(=O)O)cc1)c1ccccc1
  A: -0.9 | B: -6 | C: -2% | D: 7% | E: 3 | F: -1% | G: .

Cc1cc(C)n(CCNC(=O)C2CCC(=O)N(CCc3cccc(F)c3)C2)n1 (stereo not given)
  A: . | B: -3 | C: 12% | D: 4% | E: -6 | F: -1%[15.4 µM] | G: 1.9%

Continuation:
Second line of a record: Menin MLL FP FL, TRPML1 blocker, gsp antag, Sfp PPTase inh, TRPV1 potentiator, gsp ag, ClpP mod
> Cc1ccc(C(CNS(=O)(=O)c2cc(F)ccc2F)N2CCN(C)CC2)cc1 (stereo not given)
    ., 7, 10%, ., 10, 6%, 2.3%
> CCS(=O)(=O)N1CCC(NC(C)=O)(c2ccccc2)CC1
    1.8, 14, 20%, 2%, -6, 0%, 1.0%
> Cc1cc(C)cc(Oc2nc3ccccn3c(=O)c2/C=C(\C#N)C(=O)NC2CCS(=O)(=O)C2)c1 (stereo not given)
    3.3, 6, -6%, 7%, ?, ?, .
> COc1cc(OC)cc(-c2c(-c3cccs3)c3cc(Br)ccc3n2C)c1
    ., -13, -11%, ., -1, -5%, 4.1%
> O=C(NC(=S)Nc1ccc(Cl)c(C(=O)O)c1)c1ccco1
    0.1, -5, 3%, -18%, -1, 13%, -1.6%
> Cc1c(OCC(=O)N2CCC(C(N)=O)CC2)ccc2c3c(c(=O)oc12)CCC3
    -0.4, ., 8%, 17%, 13, ., 4.3%
> Cn1c(CNC(=O)CCNC(=O)c2ccc(Br)cc2)cc(=O)n(C)c1=O
    ., 12, 6%, 10%, 4, -3%, 1.1%
> CCOc1cc(NS(=O)(=O)c2ccc(NC(C)=O)cc2)c(OCC)cc1NC(=O)c1cccs1
    -0.7, 14, -10%, -17%, -10, -23%, -5.9%
> N#Cc1nc(-c2ccco2)oc1N1CCOCC1
    2.3, -10, 1%, 14%, -6, -28%, -11%
> C[C@H](NC(=O)c1nc[nH]c1C(=O)NCCCCCNC(=O)OC(C)(C)C)C(=O)OCc1ccccc1
    -1.7, -25, ?, 8%, 12, -33%[inhibitor], -1.1%
> Cc1ccccc1C(=O)NNc1ccc([N+](=O)[O-])cc1
    1.5, -6, 10%, -29%, 6, -10%, -1.2%
> CCc1nnc(NC(=O)CSc2nnc(-c3ccncc3)n2C)s1
    4.3, 34, 3%, 18%, 23, -5%, -0.9%
> CN(C(=O)c1ccc(OC2CCN(CCc3ccccc3)CC2)cc1)C1CCOCC1
    -1.5, -1, 6%, 13%, -4, -7%, -0.7%
> CN=C(Nc1ccc(Br)cc1)SC1CC(=O)N(c2ccc(OC)cc2)C1=O (stereo not given)
    -0.4, ?, -22%, 1%, 9, -15%[15.4 µM], .
> CN(C(=O)COC(=O)/C=C/c1ccc2ccccc2n1)C1CCS(=O)(=O)C1 (stereo not given)
    1.0, 15, -5%, 10%, 2, -11%[15.4 µM], .
> CCC(=O)Nc1ccccc1C(=O)OCc1ccc(C(=O)c2ccccc2)cc1
    1.4, 63, ?, 2%, 16, -63%[inhibitor], -2.9%
> CC(C)CNc1ncnc2c1cnn2Cc1ccc(Cl)cc1
    3.5, 28, 1%, -9%, -16, 13%, .
> COC(=O)C(C)N(C#N)c1nc(C)cc(C)n1 (stereo not given)
    -0.5, 38, 9%, 10%, 21, 1%, -0.5%
> CC(C)COC(=O)n1ccc(C(=O)N2CCCCC2)n1
    ?, 2, 9%, 18%, -11, -29%, -1.4%
> CCOC(=O)CC1=CC(=O)Nc2ccccc2N1
    2.6, -4, -1%, -7%, -7, ?, 2.4%
> CC(=O)c1ccc2c3c(ccc(O)c13)CC2
    4.9, 25, -9%, -10%, 20, -10%, 0.5%
> CCCNC(=O)c1cccc(NC(=O)C(C)C)c1
    -0.8, 6, 2%, 19%, -4, 20%, 0.5%
> O=C(OCC(=O)N1CCCCCC1)c1cccc(Cl)c1
    ., -9, 0%, ., 4, -12%, 0.5%
> CCC(CC)COC(=O)C1=C(C)NC(=O)NC1c1ccccc1Br (stereo not given)
    -1.4, -2, -22%, 5%, 11, 8%[15.4 µM], 0.0%
> CC(=O)Nc1ccc(OCCOc2ccc(/C=C3\C(=N)N4N=C(C)SC4=NC3=O)cc2)cc1
    4.9, -8, 0%, -11%, 4, 6%[15.4 µM], .
> COc1ccc(NC2=C(c3ccc(OC)cc3)C(=O)c3ccccc32)cc1
    -0.3, 6, -12%, 1%, -3, 8%, 2.1%
> Cc1cc(N2C(=O)C3C4c5ccccc5C(c5ccccc54)C3C2=O)no1 (stereo not given)
    1.1, -9, 4%, 13%, 1, -8%, -1.0%
